CR mimetic SO: reduction of superoxide in aged yeast, primary screen, HTS; S. cerevisiae aged cells, superoxide DHE fluorescence; hits give low values; superoxide response (% of plate mean), % at 10 µM; AID 2690, 2010; 0.18% of 330,000 active;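 active means superoxide response under a set limit, about three screen SD below normal, cut at about 65% in these data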;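 further: yeast aged for seven days with compound at 30 °C before DHE staining; 100% = average MFI of all compound-treated wells on the plate with controls excluded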
Efflux pump inh: inhibitors of Candida efflux pumps in yeast, primary screen, S. cerevisiae, Nile Red, multiplex. S. cerevisiae Candida pump triplex. inhibition, % at 10 µM. 0.44% of 330,000 active. AID 485275, 2010;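 active means plate passing quality check with inhibition over a set limit, or well fluorescence over plate mean plus 4 SD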;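 further: Nile Red retained in pooled yeast measured as flow cytometry median fluorescence; 0% = buffer negative control and 100% = Enniatin B positive control; higher means more Nile Red kept so more efflux inhibition; some compounds called inactive have numbers as strong as hits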
ZTA counter: counter-screen for EBNA-1 inhibitors: inhibitors of Epstein-Barr virus ZTA. ZTA-DNA binding, fluorescence polarization. 0.15% of 320,000 active. P03206. inhibition, % at 11 µM; in the data active means inhibition above about 33%
Target sequence (P03206 whole entry, looked up): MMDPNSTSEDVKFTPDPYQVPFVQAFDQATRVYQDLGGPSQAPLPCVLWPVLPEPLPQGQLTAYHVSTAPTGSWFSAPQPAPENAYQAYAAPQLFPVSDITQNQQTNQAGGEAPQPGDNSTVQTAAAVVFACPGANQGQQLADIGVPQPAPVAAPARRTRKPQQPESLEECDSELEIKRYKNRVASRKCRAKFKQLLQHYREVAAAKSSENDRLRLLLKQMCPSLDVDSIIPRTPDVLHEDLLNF
GLD-1 RNA inh: GLD-1/TGE RNA complex disruptors, primary screen, biochemical, fluorescence polarization. purified GLD-1 + fluorescein TGE RNA. inhibition, % at 5.96 µM. 0.44% of 320,000 active. AID 2280, 2010;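 active means percent inhibition above a per-plate cutoff, the plate mean of test compounds plus 3 SD, cut at about 30% in these data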;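 further: 0% = DMSO wells with GLD-1 and probe and 100% = wells lacking GLD-1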
Target sequence (Q17339 whole entry, looked up): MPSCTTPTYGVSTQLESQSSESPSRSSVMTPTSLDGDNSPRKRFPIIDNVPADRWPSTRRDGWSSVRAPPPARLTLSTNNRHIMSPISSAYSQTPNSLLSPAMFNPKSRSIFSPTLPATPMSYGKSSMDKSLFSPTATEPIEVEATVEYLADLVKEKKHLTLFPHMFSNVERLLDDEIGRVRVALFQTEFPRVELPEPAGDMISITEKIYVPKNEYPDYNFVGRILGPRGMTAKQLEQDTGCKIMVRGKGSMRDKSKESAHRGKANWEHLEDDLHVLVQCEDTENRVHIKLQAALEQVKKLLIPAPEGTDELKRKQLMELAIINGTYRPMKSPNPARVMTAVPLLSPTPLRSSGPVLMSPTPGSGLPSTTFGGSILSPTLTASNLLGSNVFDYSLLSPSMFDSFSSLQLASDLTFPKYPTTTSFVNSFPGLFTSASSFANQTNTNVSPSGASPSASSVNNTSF
MEX-5 binding: MEX-5 zinc finger RNA-binding disruptors – biochemical, C. elegans, fluorescence polarization, MLPCN library, primary screen. Zinc finger protein mex-5 (Caenorhabditis elegans), Q9XUB2. MEX-5/FITC-TCR2 RNA binding; hits give low values. activity score (negative = inhibition of binding), % at 10 µM. 0.38% of 300,000 active;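 active means inhibition past about -25% in most replicates, and total fluorescence under double the plate's negative control median, limit read from the data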;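 further: 0% = DMSO and -100% = 5 µM competing unlabeled TCR2 RNA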
EBNA-1 inhibitor: EBNA-1 DNA-binding inhibitors, primary screen, biochemical, fluorescence polarization; inhibition, % at 14.8 µM; 0.34% of 300,000 active; in the data active means inhibition above about 28%
Fam108B counter: mouse Fam108B serine hydrolase inhibitors, primary screen, counter-screen for RBBP9 inhibitor project, biochemical, fluorescence polarization; 0.33% of 300,000 active; AID 1947, 2009; recombinant Fam108B, FP-Rh probe fluorescence polarization; inhibition, % at 9.51 µM;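 active means inhibition above the screen mean inhibition plus 3 SD, computed separately per campaign, cut at about 18% in these data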;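 further: inhibitors lower polarization as less probe binds the enzyme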
* hit, by the source's call. This is a subset; rates above refer to the full screens.

For O=C(Cn1nc(-c2ccccc2)nc1-c1ccccc1)OC1CCCCC1 the results were CR mimetic SO 101, Efflux pump inh 0.1, ZTA counter 11, GLD-1 RNA inh 8, MEX-5 binding 0.1, EBNA-1 inhibitor 5 and Fam108B counter 5.
For Cn1nc([N+](=O)[O-])c2c(-c3nc4ccccc4s3)c(N)n(C3CCCCC3)c2c1=O the results were CR mimetic SO 99, Efflux pump inh 0.0, ZTA counter -9, GLD-1 RNA inh -1, MEX-5 binding 1.4, EBNA-1 inhibitor 1 and Fam108B counter -2.
COc1ccc(-c2nnc(SCCC(=O)O)n2C)cc1OC was read as CR mimetic SO 82, Efflux pump inh 0.2, ZTA counter 1, GLD-1 RNA inh 8, MEX-5 binding 2.8, EBNA-1 inhibitor 0 and Fam108B counter 3.
`CCCCn1nnnc1NCc1ccc(OC)c(OC)c1` gave CR mimetic SO 112, Efflux pump inh 0.0, ZTA counter -11, GLD-1 RNA inh 10, MEX-5 binding -0.7, EBNA-1 inhibitor -8 and Fam108B counter 0.
Screening COc1ccccc1NC(=O)C1=C(C)Nc2nnnn2C1c1cccc(C)c1 (stereo unspecified) returned CR mimetic SO 110, Efflux pump inh -0.1, ZTA counter 0, GLD-1 RNA inh 0, MEX-5 binding -0.1, EBNA-1 inhibitor -8 and Fam108B counter -4.
`CCNC(=S)N/N=C/c1ccc(OCC(=O)Nc2ccc(OC)cc2)c(OC)c1` gave CR mimetic SO 104, Efflux pump inh 0.1, ZTA counter 9, GLD-1 RNA inh -1, MEX-5 binding 0.0, EBNA-1 inhibitor 0 and Fam108B counter -2.
For FC(F)(F)c1cc(-c2ccc(Cl)cc2)nc(NCc2cccnc2)n1 the results were CR mimetic SO 91, Efflux pump inh -0.1, ZTA counter 4, GLD-1 RNA inh -3, MEX-5 binding 1.0, EBNA-1 inhibitor 2 and Fam108B counter -2.
C=CCOc1nc2c(c(=O)n(Cc3ccc(Cl)cc3)c(=O)n2C)n1C was read as CR mimetic SO 85, Efflux pump inh 0.0, ZTA counter 18, GLD-1 RNA inh 1, MEX-5 binding -2.2, EBNA-1 inhibitor -6 and Fam108B counter 1.
Screening CN1CCN(c2oc(/C=C/c3ccccc3)nc2C#N)CC1 returned CR mimetic SO 86, Efflux pump inh -0.1, ZTA counter 0, GLD-1 RNA inh -3, MEX-5 binding 3.7, EBNA-1 inhibitor -2 and Fam108B counter 3.
O=C(c1ccccc1F)N1CCN(S(=O)(=O)c2ccc(S(=O)(=O)N3CCCCC3)cc2)CC1 was read as CR mimetic SO 95, Efflux pump inh -0.2, ZTA counter 15, GLD-1 RNA inh -1, EBNA-1 inhibitor 4 and Fam108B counter 1.
`CCOC(=O)c1cc2occc2n1CC(=O)N1CCN(C(=O)c2ccco2)CC1` gave CR mimetic SO 92, Efflux pump inh -0.1, ZTA counter 8, GLD-1 RNA inh 8, MEX-5 binding 2.2, EBNA-1 inhibitor 2 and Fam108B counter 1.
For Cc1cc(OCc2nc(-c3ccc(NC(=O)c4cccnc4)cc3)no2)ccc1Cl the results were CR mimetic SO 113, Efflux pump inh 0.2, ZTA counter 16, GLD-1 RNA inh -1, MEX-5 binding -1.1, EBNA-1 inhibitor 3 and Fam108B counter -12.
For Cc1c(/C=N/NC(=O)CNc2ccccc2)c2ccccn2c1C(=O)c1ccc(Cl)cc1 the results were CR mimetic SO 91, Efflux pump inh -0.4, ZTA counter 2, GLD-1 RNA inh -3, MEX-5 binding -0.3, EBNA-1 inhibitor -5 and Fam108B counter 18.
For CCc1ccc(NC(=O)c2cnn3c(C(F)F)cc(C)nc23)cc1 the results were CR mimetic SO 96, Efflux pump inh 0.0, ZTA counter 3, GLD-1 RNA inh 0, MEX-5 binding 4.2, EBNA-1 inhibitor -3 and Fam108B counter -4.
Screening COc1ccc(/C=C2/SC(=O)N(CCC(=O)Nc3ccccc3)C2=O)cc1OC returned CR mimetic SO 98, Efflux pump inh -0.1, ZTA counter -14, GLD-1 RNA inh 3, MEX-5 binding -2.5, EBNA-1 inhibitor -6 and Fam108B counter -2.
`COCC(C)Nc1ncnc2c1cnn2-c1ccc(Cl)cc1` (stereo unspecified) gave CR mimetic SO 107, Efflux pump inh 0.0, ZTA counter 17, GLD-1 RNA inh 5, MEX-5 binding -1.3, EBNA-1 inhibitor -1 and Fam108B counter 3.
For CCOc1ccc(C(=O)/C=C/Nc2ccc(S(=O)(=O)N=C(N)N)cc2)cc1 the results were CR mimetic SO 95, Efflux pump inh -0.3, ZTA counter 2, GLD-1 RNA inh -2, MEX-5 binding 0.0, EBNA-1 inhibitor 2 and Fam108B counter -7.
Cn1c(=O)c2c(ncn2C)n(C)c1=O was read as CR mimetic SO 94, Efflux pump inh 0.0, ZTA counter -11, GLD-1 RNA inh 3, MEX-5 binding -1.5, EBNA-1 inhibitor 6 and Fam108B counter 1.
For O=C(NCCNC(=O)c1cccs1)c1ccco1 the results were CR mimetic SO 96, Efflux pump inh -0.1, ZTA counter -2, GLD-1 RNA inh 10, EBNA-1 inhibitor -5 and Fam108B counter 4.
For O=C(/C=C/NNC(=O)c1cccc(Br)c1)c1ccccc1 the results were CR mimetic SO 109, Efflux pump inh -0.1, ZTA counter -3, GLD-1 RNA inh -1, MEX-5 binding 3.8, EBNA-1 inhibitor 3 and Fam108B counter -2.

Quoted from above, six compounds:
Screening COc1ccc(/C=C2/SC(=O)N(CCC(=O)Nc3ccccc3)C2=O)cc1OC returned CR mimetic SO 98, Efflux pump inh -0.1, ZTA counter -14, GLD-1 RNA inh 3, MEX-5 binding -2.5, EBNA-1 inhibitor -6 and Fam108B counter -2.
`COCC(C)Nc1ncnc2c1cnn2-c1ccc(Cl)cc1` (stereo unspecified) gave CR mimetic SO 107, Efflux pump inh 0.0, ZTA counter 17, GLD-1 RNA inh 5, MEX-5 binding -1.3, EBNA-1 inhibitor -1 and Fam108B counter 3.
For CCOc1ccc(C(=O)/C=C/Nc2ccc(S(=O)(=O)N=C(N)N)cc2)cc1 the results were CR mimetic SO 95, Efflux pump inh -0.3, ZTA counter 2, GLD-1 RNA inh -2, MEX-5 binding 0.0, EBNA-1 inhibitor 2 and Fam108B counter -7.
Cn1c(=O)c2c(ncn2C)n(C)c1=O was read as CR mimetic SO 94, Efflux pump inh 0.0, ZTA counter -11, GLD-1 RNA inh 3, MEX-5 binding -1.5, EBNA-1 inhibitor 6 and Fam108B counter 1.
For O=C(NCCNC(=O)c1cccs1)c1ccco1 the results were CR mimetic SO 96, Efflux pump inh -0.1, ZTA counter -2, GLD-1 RNA inh 10, EBNA-1 inhibitor -5 and Fam108B counter 4.
For O=C(/C=C/NNC(=O)c1cccc(Br)c1)c1ccccc1 the results were CR mimetic SO 109, Efflux pump inh -0.1, ZTA counter -3, GLD-1 RNA inh -1, MEX-5 binding 3.8, EBNA-1 inhibitor 3 and Fam108B counter -2.

New compounds follow:
N#Cc1cnc(SCC(=O)c2ccccc2)nc1N was read as CR mimetic SO 121, Efflux pump inh -0.2, ZTA counter -13, GLD-1 RNA inh -5, MEX-5 binding -2.7, EBNA-1 inhibitor 2 and Fam108B counter -2.
For CCc1ccc(N2C(=O)C3ON(c4ccccc4)C(c4ccco4)C3C2=O)cc1 (stereo unspecified) the results were CR mimetic SO 106, Efflux pump inh -0.2, ZTA counter -7, GLD-1 RNA inh 4, MEX-5 binding -1.0, EBNA-1 inhibitor 6 and Fam108B counter 4.
O=C(N/N=C/C=C/c1ccco1)c1cccc([N+](=O)[O-])c1 was read as CR mimetic SO 90, Efflux pump inh -0.1, ZTA counter -7, GLD-1 RNA inh 3, MEX-5 binding 0.9, EBNA-1 inhibitor -4 and Fam108B counter -1.
Screening NS(=O)(=O)c1cccc(NS(=O)(=O)c2cccc(C(F)(F)F)c2)c1 returned CR mimetic SO 103, Efflux pump inh 0.0, ZTA counter -2, GLD-1 RNA inh -4, MEX-5 binding -0.7, EBNA-1 inhibitor 4 and Fam108B counter 1.
`O=[N+]([O-])c1cccc(-c2ccc(/C=N/n3c(-c4ccccc4)n[nH]c3=S)o2)c1` gave CR mimetic SO 105, Efflux pump inh 0.0, ZTA counter 7, GLD-1 RNA inh 3, MEX-5 binding -7.1, EBNA-1 inhibitor 3 and Fam108B counter -7.
For CCc1ccc(NC(=O)N(CCN2CCOCC2)C2CCN(C(C)=O)CC2)cc1 the results were CR mimetic SO 101, Efflux pump inh 0.2, ZTA counter -8, GLD-1 RNA inh 0, MEX-5 binding -0.7, EBNA-1 inhibitor -2 and Fam108B counter -5.
For CCCc1nnc(-c2ccc(OC)cc2)o1 the results were CR mimetic SO 93, Efflux pump inh 0.1, ZTA counter 1, GLD-1 RNA inh -9, MEX-5 binding -3.2, EBNA-1 inhibitor 9 and Fam108B counter 3.
